High-throughput results from PubChem BioAssay.
CDC25B CDK2 inh – human CDC25B-CDK2/CyclinA binding inhibition; P30305+P24941; HTRF CDC25B-CDK2/CyclinA binding, anti-His/anti-Flag; stronger effect = higher value; z-score (test concentration not listed); 0.72% of 94,000 active;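 further: score is relative to mean and SD of negative controls; strong numbers were not always called active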
HIV TAR-Tat – HIV-1 TAR-Tat binding disruption; z-score (concentration not given with the values); HIV-1 TAR RNA, Tat peptide displacement FRET; stronger effect = higher value; 0.6% of 100,000 active;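 further: score is relative to mean and SD of negative controls; some compounds called inactive have numbers as strong as hits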
Active calls of the source: *; · = not tested or not shown.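 How the source made its calls: active means z-score from 3 up in half or more of its runs; inactive means the rest.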

SMILES	CDC25B CDK2 inh	HIV TAR-Tat
Cn1c(=O)c2cn3c(c2n(C)c1=O)C(c1cccs1)Nc1ccccc1-3 (configuration not stated)	-1.6	1
CC(C)N(C(=O)Nc1ccc2snnc2c1)C(C)C	-0.66	0.58
COC(=O)c1cc(NS(=O)(=O)c2ccc3c(c2)CCC(=O)N3)cc(C(=O)OC)c1	0.38	·
O=C(O)c1ccc(CNc2nc3ccccc3n3cnnc23)cc1	-2.5	·
Cc1ccc(Nc2ncnc3c2nc2n3CCCC2)cc1	·	-0.16
CC(C)Cn1c(=O)c2ccccc2n2c(=O)[nH]nc12	-1.4	3
COc1ccc(C2C3=C(CC(C)(C)CC3=O)Nc3nc(SC)nn32)cc1OC (configuration not stated)	-1.8	0.84
CCN(Cc1ccccc1)C(=O)CSc1nncn2c1cc1occc12	·	6.7*
CCOc1ccc(NC(=O)N(Cc2cn(CC)c3ccccc23)C(C)C)cc1	-0.18	·
C#Cc1cccc(NC(=O)NC(=O)c2c(Cl)cccc2Cl)c1	-0.66	·
Cc1ccc(-c2onc(C)c2C)cc1S(=O)(=O)N1CCc2ccccc2C1	·	0.21
CCOc1cccc(=O)c2c(C)n(-c3ccc(C)cc3)c(C)c12	-0.13	-2.4
O=C1CC2(CCCC2)C(=O)N1c1cc(C(F)(F)F)cc(C(F)(F)F)c1	-2	·
CC1CCC(NC(=O)CCS(=O)(=O)c2ccc3c(c2)n(C)c(=O)c(=O)n3C)CC1 (configuration not stated)	-2.2	-0.15
O=C(c1ccc(N2C(=O)C3CC=CCC3C2=O)cc1)c1ccc(N2C(=O)C3CC=CCC3C2=O)cc1 (configuration not stated)	-2.2	0.89
CCOc1nnc(OCC)c2ccccc12	-2.1	1.6
Cn1c2c(c(=O)n(C)c1=O)CN(Cc1cccnc1)CN2	-1.8	-0.87
Cc1cc(/C=C2\SC(=S)NC2=O)oc1C	-2.5	·
COC(Cn1c(SCc2ccccc2)nnc1-c1ccccc1)OC	-1.3	·
CCc1ccc(-c2[nH]nc3nc(-c4ccc(C(=O)OC)cc4)cc(C(=O)O)c23)cc1	·	3.4

Another view of part of the listing above:
canonical_smiles | CDC25B CDK2 inh | HIV TAR-Tat
CCOc1cccc(=O)c2c(C)n(-c3ccc(C)cc3)c(C)c12 | -0.13 | -2.4
O=C1CC2(CCCC2)C(=O)N1c1cc(C(F)(F)F)cc(C(F)(F)F)c1 | -2 | ·
CC1CCC(NC(=O)CCS(=O)(=O)c2ccc3c(c2)n(C)c(=O)c(=O)n3C)CC1 (configuration not stated) | -2.2 | -0.15
O=C(c1ccc(N2C(=O)C3CC=CCC3C2=O)cc1)c1ccc(N2C(=O)C3CC=CCC3C2=O)cc1 (configuration not stated) | -2.2 | 0.89

Next part
SMILES	CDC25B CDK2 inh	HIV TAR-Tat
CN(C)/C=C(\C#N)C(=O)NOCc1c(F)cccc1Cl	-1.1	·
CCOc1cc(/C=C2\N=C(SCC)SC2=O)ccc1OC(C)=O	-0.81	2
COc1cc(C2NC(=O)c3c(sc4c3CCCC4)N2)cc(Br)c1OC (configuration not stated)	-0.56	-0.77
O=C(NCc1ccc(F)cc1)c1cnc2sc(N3CCOCC3)nn2c1=O	·	1
Cc1nn(-c2nc3ccccc3[nH]2)c2c1C(c1ccc(C(C)(C)C)s1)CC(=O)N2 (configuration not stated)	·	1.9
COc1ccccc1N1C(=O)C2C3C=CC(CC3)C2C1=O (configuration not stated)	-0.49	0.55
O=S1(=O)CCCCN1c1ccc(S(=O)(=O)N2CCc3ccccc3C2)cc1	·	1
O=C(NCC1CCCO1)c1ccc2c(c1)ncn2-c1ccc(F)c(F)c1 (configuration not stated)	·	2
O=C(C#Cc1ccccc1)Nc1ccc(OC(F)(F)F)cc1	-0.06	·
O=C(Nc1nnc(COc2ccccc2F)s1)C(=O)c1c[nH]c2ccccc12	-1.1	0.55
O=c1[nH]cnc2sc3c(c12)CN(Cc1ccccc1)CC3	0	·
CCCCCCn1c(CN2CCN(C(=O)OCC)CC2)nc2c1c(=O)n(C)c(=O)n2C	0.63	0.54
O=C(O)CC1SC(c2cccc(Cl)c2)=NC1=O (configuration not stated)	-2.6	·
CC(C)NC(=O)C1CCCN(c2nc3cccnc3s2)C1 (configuration not stated)	·	0.75
COCCCNC(=O)CSc1nnc(-c2ccoc2C)o1	0.84	0.65
O=C(NCCc1c[nH]c2ccccc12)c1cc2c(s1)CS(=O)(=O)C2	0.47	0.62
CCCCN(C)C(=O)CCCn1nc(C)n2c(cc3occc32)c1=O	-0.61	0.64
Cn1c(C2=C(O)CN(c3ccc(N4CCCCC4)cc3)C2=N)nc2ccccc21	1.7	0.2
O=c1[nH]c2ccc(S(=O)(=O)N3CCN(c4ccccn4)CC3)cc2s1	1.2	·
Cc1ccc(C)c(NC(=O)NCCc2csc(C)c2C)c1	·	-0.73

Random excerpt: two entries already listed.
SMILES	CDC25B CDK2 inh	HIV TAR-Tat
O=c1[nH]c2ccc(S(=O)(=O)N3CCN(c4ccccn4)CC3)cc2s1	1.2	·
CCCCN(C)C(=O)CCCn1nc(C)n2c(cc3occc32)c1=O	-0.61	0.64

(next part)
SMILES	CDC25B CDK2 inh	HIV TAR-Tat
CCSC1=NC(C)(C)Cc2cc(OC)c(OC)cc21	-1.1	1.8
CC1=C(C(=O)OCCOc2ccccc2)C(c2ccccc2Br)C2=C(CCCC2=O)N1 (configuration not stated)	-1.1	1.4
O=[N+]([O-])c1cc2c(c(CSCCO)c1)OCOC2	-0.72	·
CCOC(=O)c1c(-n2c(C)cc(/C=N/NC(=O)C(O)(c3ccccc3)c3ccccc3)c2C)sc2c1CCCC2	-2	·
COc1ccc(-c2cc(C)no2)cc1S(=O)(=O)N1CCSc2ccccc21	·	0.71
COc1ccc(Nc2nc(Nc3ccccc3)nc3c2cnn3C)cc1	·	0.34
CSC(=Nc1cccc(SC)c1)NC#N	-1.4	·
Cc1nc2nc(NCc3ccccc3)nn2c(C)c1Cl	0.35	-5.9
CC1CCN(S(=O)(=O)N2CCCC(C(=O)NC3CCCC3)C2)CC1 (configuration not stated)	·	0.59
Nc1ccc(-c2nc3cc(N)ccc3o2)cc1	-1	2
Cc1ccc(N2CC(c3nc4ccc(C)cc4[nH]3)CC2=O)cc1 (configuration not stated)	-0.6	0.41
COc1cc2c(CCNC(C)=O)c[nH]c2cc1O	-5.1	·
Cc1ccc(C)c(NS(=O)(=O)c2cn(C)cn2)c1	·	1.7
O=C(NCCCN1CCN(c2ccccc2)CC1)Nc1ccc(Br)cc1F	-1.8	1.9
CCOc1ccc(OCC)c(NS(=O)(=O)c2cc(Br)cnc2N)c1	-0.67	2
NCC(c1ccco1)c1c[nH]c2ccccc12 (configuration not stated)	-3	-2.1
Cn1c2c(c(=O)n(C)c1=O)CN(Cc1cccs1)CN2	0.78	6.4
COc1cccc(Cn2c(CN)nc3cccnc32)c1	-1.2	-2.1
Cn1c(=O)c2c(nc(NCc3ccco3)n2Cc2cccc(Cl)c2)n(C)c1=O	-1.1	-0.4
COC(=O)c1cccc(NC(=S)Nc2ccccc2C(F)(F)F)c1	-0.81	·
CC(=O)N1CCc2cc(S(=O)(=O)C(C)CC(=O)NC3CCCC3)ccc21 (configuration not stated)	·	0.31
COc1ccc(CCNC(=S)NC(=O)c2cccc([N+](=O)[O-])c2)cc1OC	-0.86	·
Cc1ccc2nc(-c3ccc(C)c(NC(=O)c4ccc([N+](=O)[O-])o4)c3)oc2c1	0.76	-1.6
OCCCNc1ncnc2c1cnn2-c1ccc(Cl)cc1	0.07	·
COc1ccc2c(c1)CC(NC(=O)N1CCN(C3CCCCC3)CC1)CO2 (configuration not stated)	·	1.3
Cc1c(C(=O)OCC2CCCCC2)[nH]c2c1C(=O)CC(c1cccs1)C2 (configuration not stated)	-1.6	·
CN1CCN(C(=O)c2cnc(N3CCOCC3)nc2)CC1	·	1.2
Cc1ccc(C)c(C(=O)CN2C3=NCCCN3c3ccccc32)c1	1.6	-0.1
COc1cccc(N2CCN(S(=O)(=O)c3ccc4[nH]c5c(c4c3)CCCC5)CC2)c1	·	-2.2
COc1ccc(-c2nc(SCC(=O)Oc3cccc(C)c3C)n3[nH]c(=O)cc3n2)cc1	·	0.54
O=C(NCc1ccc(Cl)cc1)c1ccc(CNc2c(N3CCCC3)c(=O)c2=O)cc1	-1.3	2.4
CC(Oc1ccccc1)C(=O)Nc1nnc2n1CCCS2 (configuration not stated)	·	0.81
CC(=O)NCCc1cc2cc(C)c(C)cc2[nH]c1=O	-3.2	·
COC(=O)c1c(C)sc(-c2c(-c3ccc(OC)cc3)[nH]c3c2c(=O)[nH]c(=O)n3C)c1O	-2.1	-5.6
O=C(CSc1nnc2ccccn12)Nc1ccc(F)cc1	-1.6	·
O=C(CCc1ccccc1)Nc1ccc2nc(SCc3cc(=O)n4ccsc4n3)sc2c1	·	0.35
CCc1ccc(S(=O)(=O)c2n[nH]n3c2nc(=O)c2ccccc23)cc1	0.41	0.63
C=CCn1c(SCC(=O)N2CCOCC2)nc2sc(C)c(C)c2c1=O	0.15	0.54
COc1ccc(NS(=O)(=O)c2c(C)[nH]c(=O)[nH]c2=O)cc1Cl	·	0.76
Cc1ccccc1Nc1c(-c2ccsc2)nc2ncccn12	-0.72	·

Single records, as listed above:
Listed for `CC(=O)NCCc1cc2cc(C)c(C)cc2[nH]c1=O` → CDC25B CDK2 inh: -3.2; HIV TAR-Tat: ·
Listed for `CCc1ccc(S(=O)(=O)c2n[nH]n3c2nc(=O)c2ccccc23)cc1` → CDC25B CDK2 inh: 0.41; HIV TAR-Tat: 0.63
Listed for `O=C(NCc1ccc(Cl)cc1)c1ccc(CNc2c(N3CCCC3)c(=O)c2=O)cc1` → CDC25B CDK2 inh: -1.3; HIV TAR-Tat: 2.4

(more compounds)
SMILES	CDC25B CDK2 inh	HIV TAR-Tat
CN(C)C(=O)C(=O)c1c(-c2ccc(Br)cc2)[nH]c2ccccc12	-1.9	1
CCOC(=O)CN1C(=O)C(O)(CC(=O)c2ccc(-c3ccccc3)cc2)c2ccccc21 (configuration not stated)	-0.77	0.67
Cc1c(S(=O)(=O)c2ccc(Cl)cc2)csc1C(=O)NCc1csc2ccc(Cl)cc12	-1.2	·
CN1C(=O)C(C)(C)c2cc(S(=O)(=O)N3CCN(c4ccc(N5CCOCC5)nn4)CC3)ccc21	·	-0.56
CC1CCCC(N2CCN(Cc3ccc(Cl)cc3)CC2)C1 (configuration not stated)	-0.42	-0.22
Nc1nc(N)c2nc(CNc3ccc(C(=O)NC(CCC(=O)O)C(=O)O)cc3)cnc2n1 (configuration not stated)	-0.8	-0.17
O=C(Cn1c(=O)oc2cc(Cl)ccc21)N1CCN(c2ccc(Cl)cc2)CC1	·	-0.71
O=C(O)CSc1cccc(C(F)(F)F)c1	0.13	·
CCCN1C(=O)C(O)(CC(=O)c2ccccc2)c2cc(Br)ccc21 (configuration not stated)	-0.31	·
CCCNC(=O)CCc1c(C)[nH]n(-c2nc(C)c(C)s2)c1=O	0.46	0.59

Arranged by heavy-atom count (descending): part of the list above
SMILES	CDC25B CDK2 inh	HIV TAR-Tat
Cc1c(S(=O)(=O)c2ccc(Cl)cc2)csc1C(=O)NCc1csc2ccc(Cl)cc12	-1.2	·
O=C(Cn1c(=O)oc2cc(Cl)ccc21)N1CCN(c2ccc(Cl)cc2)CC1	·	-0.71
CN(C)C(=O)C(=O)c1c(-c2ccc(Br)cc2)[nH]c2ccccc12	-1.9	1
CCCNC(=O)CCc1c(C)[nH]n(-c2nc(C)c(C)s2)c1=O	0.46	0.59
CC1CCCC(N2CCN(Cc3ccc(Cl)cc3)CC2)C1 (configuration not stated)	-0.42	-0.22

(more compounds)
SMILES	CDC25B CDK2 inh	HIV TAR-Tat
CC1(c2ccncc2)NC(=O)NC1=O (configuration not stated)	-1.5	2.6
c1ccc(Nc2nc(-c3ccccn3)cs2)cc1	-1.9	0.37
O=C(c1cc2c(s1)-c1ccccc1OC2)N1CCN(c2ccccn2)CC1	-0.94	-0.26
Cc1csc2nc(CSc3nnc(NC(=O)COc4ccccc4)s3)cc(=O)n12	·	0.52
C=CCN1C(=O)c2[nH]nc(-c3c(C)cc(C)cc3O)c2C1c1ccccc1F (configuration not stated)	1.6	0.07
CN1CCN(c2nc3c(c(=O)[nH]c(=O)n3C)n2CC(O)COc2ccc(Br)cc2)CC1 (configuration not stated)	-0.14	·
CC1(C)CC(=O)C2=C(C1)N1C(=C(C#N)C2c2ccc(F)cc2)N=C(N)c2ccccc21 (configuration not stated)	1.5	-4.8
Cc1ccc(N2C(=O)N(c3ccc(F)cc3)C3CS(=O)(=O)CC32)cc1Cl (configuration not stated)	-1.9	0.2
Clc1ccccc1-c1nnc(C(Nc2ccc3c(c2)OCO3)c2ccccc2)o1 (configuration not stated)	·	-1.5
Fc1cc(Br)ccc1CSc1nncn2c1cc1occc12	·	0.9
O=C1CSC(c2ccc(Cl)cc2)N1CCN1CCCCC1 (configuration not stated)	-3.2	1.5
CC(C)(C)C1CCc2c(sc3nc(CCC(=O)Nc4ccc(F)cc4)[nH]c(=O)c23)C1 (configuration not stated)	·	0.25
COCCNc1nc(-c2nnc(-c3cccc(C)c3)o2)nc2ccccc12	·	0.75
CSc1ccc(CCNc2ccc3nnc(-c4ccccc4)n3n2)cc1	-1.9	-0.68
CCCN1CCN(c2nc(Nc3ccc(F)cc3)c3cnn(C)c3n2)CC1	·	1.9
COCCCNc1ncnc2c1nc1n2CCCC1	·	-0.09
CCCCOC(=O)C1=C(C)NC2=C(C(=O)CCC2)C1c1cc(Br)c(O)c(OC)c1 (configuration not stated)	-0.03	-0.68
C=CCC(O)(c1ccc(F)cc1)C(CN1CCOCC1)c1ccccc1 (configuration not stated)	-1.3	1.5
COc1ccccc1C1C2=C(Nc3c1c(=O)n(C)c(=O)n3C)c1ccccc1C2=O (configuration not stated)	-1.2	-0.35
COc1ccccc1-n1c(C)c(C)c2c1ncn1nc(-c3cccs3)nc21	-1.1	-0.94
Cc1ccc(Nc2nc(C)cc(C)n2)c(Br)c1	-0.92	-0.16
O=C(Nc1cccc(-c2cn3ccsc3n2)c1)c1cccc(Br)c1	-0.97	·
Cc1ccc(S(=O)(=O)Nc2c(C)nc3nc(C)[nH]n3c2=O)c(C)c1	-1.1	1.6
CCc1nc2nc(C)cc(Nc3ccc(OC)cc3OC)n2n1	-1.8	1.5
